Assay outcomes: PubChem, several laboratories
FGF22 binding: binders of human FGF22 protein, primary screen, FGF22 synaptogenesis inhibitor project, biophysical, thermal shift, single point; Fibroblast growth factor 22 (Homo sapiens), Q9HCT0; recombinant FGF22 thermal shift, SYPRO orange fluorescence; percent of sucrose octasulfate shift, DMSO zero; calls only at 9.99 µM; 340,000 tested, 1.5% active; AID 651658, 2012;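 active = melting point raised past a set limit in the mean and every replicate; three in four hits are not shown here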
Target sequence (Q9HCT0 whole entry, looked up): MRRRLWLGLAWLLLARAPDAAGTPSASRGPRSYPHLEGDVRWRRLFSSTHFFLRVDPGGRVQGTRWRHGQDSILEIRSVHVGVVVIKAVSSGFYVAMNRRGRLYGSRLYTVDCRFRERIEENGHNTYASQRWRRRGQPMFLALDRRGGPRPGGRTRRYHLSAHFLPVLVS
HNF4A DNA FP: change in binding of human HNF4A to DNA, primary screen, biochemical, fluorescence polarization, FITC-DNA; Hepatocyte nuclear factor 4-alpha (Homo sapiens), P41235; 1 h; activity change, % at 10 µM; 360,000 tested, 0.3% active; in the data active = activity change above about 30%, passing the limit was not always enough;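 also: controls were the assay level and a saturating level of protein; the project sought stronger binding though the title names inhibitors; some compounds called inactive have numbers as strong as hits; positive values seem to mean higher polarization but the record does not say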
Target sequence (P41235 whole entry, looked up): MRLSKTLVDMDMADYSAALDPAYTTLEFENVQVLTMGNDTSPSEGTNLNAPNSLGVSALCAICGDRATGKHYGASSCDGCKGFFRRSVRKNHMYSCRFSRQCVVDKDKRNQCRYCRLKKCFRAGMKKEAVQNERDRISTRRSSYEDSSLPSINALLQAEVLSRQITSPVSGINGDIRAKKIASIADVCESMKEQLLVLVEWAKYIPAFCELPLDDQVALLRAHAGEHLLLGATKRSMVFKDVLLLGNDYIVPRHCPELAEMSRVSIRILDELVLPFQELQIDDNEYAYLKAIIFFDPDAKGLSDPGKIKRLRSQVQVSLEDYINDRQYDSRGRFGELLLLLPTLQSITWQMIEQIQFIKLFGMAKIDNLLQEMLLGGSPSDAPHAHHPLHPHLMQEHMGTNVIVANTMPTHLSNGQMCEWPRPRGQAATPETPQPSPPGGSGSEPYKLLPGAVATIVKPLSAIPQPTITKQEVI
* marks the source's active call; other numbers are inactive results; i = inactive; . = not tested or not shown; + = active, no number. This is a subset; count on the stated rates, not on these rows.

SMILES | FGF22 binding | HNF4A DNA FP
CCc1ccccc1NC(=O)CNC(=O)CCC(=O)c1cc(C)sc1C | i | 5.1
CC1(C(=O)NCc2ccco2)Cc2c(-c3ccc(C(N)=O)cc3)ccnc2O1 (stereo unspecified) | i | -3.7
O=c1[nH][nH]c2c1[C@H](CCc1cccc(Cl)c1)O[C@H](CCc1ccccc1)C2 | i | 2.8
Cc1ccc(S(=O)(=O)N2C[C@H]3[C@H]4C(=O)N(c5ccccc5)C(=O)[C@H]4C[C@H](OC(=O)NCc4ccccc4F)[C@@]3(O)C2)cc1 | . | 1.1
C[C@@H]1CN([C@H](C)CO)C(=O)CCCn2nncc2CO[C@H]1CN(C)C(=O)Nc1cccc(Oc2ccccn2)c1 | i | 0.2
Cc1ccc(N2CCN(C(=O)C(=O)c3ccc4c(c3)OCO4)CC2)cc1 | i | -3.5
CNc1cncc(-c2cccnc2)n1 | i | -2.8
CCCS(=O)(=O)NC(=O)C1(C)CCN(C(=O)c2ccc(F)c(Cl)c2)C1 (stereo unspecified) | i | 0.8
Cc1ccc(Cn2c(C)c(C(=O)NCC(C)C)sc2=O)cc1 | i | 2.7
CCCC(=O)Nc1cccc(NC(=O)Cc2ccc(Cl)cc2)c1 | i | 1.5
Cc1noc(C)c1NC(=O)N(C)C[C@H]1OCc2cnnn2CCCC(=O)N([C@@H](C)CO)C[C@H]1C | i | 0.9
CC1(C(=O)NCC(F)(F)F)CCN1C(=O)Cc1ccc(-c2ccccc2)cc1 (stereo unspecified) | i | 4.9
Cc1ccc(NC(=O)C2(C)CCN2CCc2ccccc2)cc1O (stereo unspecified) | i | -1.1
COCCN1C(=O)CCC1(C)c1nnnn1-c1c(C)cccc1C (stereo unspecified) | i | -0.2
Cc1ccc(C(NC(=O)C2CCN(CCOc3ccc(Cl)cc3)CC2)c2ccccn2)cc1 (stereo unspecified) | i | 0.4
Cn1c(CCN2CCCC2)nc2cc(NS(=O)(=O)c3ccc(F)cc3)ccc21 | i | 2.6
CCCNC(=O)C1(C)CCCN(C(=O)c2cccc(OC(F)(F)F)c2)C1 (stereo unspecified) | i | 1.8
CCOC(=O)c1cc2c(c(-c3cccc(C#Cc4ccc(OC)c(OC)c4)c3)n1)[C@@H](CCO)N(S(=O)C(C)(C)C)C2 (stereo partly specified) | i | 11.1
CC(=NCc1ccccc1)c1ccccc1O | i | 1.2
COc1ccc(-c2nc3c4ccccc4ccn3c2Cc2ccccc2C(F)(F)F)cc1OC | i | 1.0
COc1cc(/C=C/C(=O)O)cc(S(=O)(=O)Nc2cc(S(=O)(=O)N3CCCCC3)ccc2Cl)c1OC | i | 0.7
CCOC1=C2CN(S(=O)(=O)c3ccc(C)cc3)[C@H](c3ccccc3)C[C@@H]2N(S(=O)(=O)c2ccccc2)[C@H](c2ccccc2)C1 | i | -1.5
O=C(CCCN1CCN(c2ccccc2)CC1)c1ccc(F)cc1 | i | -0.8
O=S1(=O)CC(N2CCCCC2)CN1Cc1cn(Cc2ccc(C(F)(F)F)cc2)nn1 (stereo unspecified) | i | 2.7
COc1ccc(C(C(=O)NC(C)(C)C)n2c(-c3ccc(-c4ccccc4)cc3)nc3ccccc32)cc1 (stereo unspecified) | i | -2.0
CC(C)(C)OC(=O)N1CCC[C@@H]1C(=O)NCc1ccccc1Cl | i | -1.3
CC(C)(C)N1C(=O)c2c(C(=O)OCc3ccccc3)[nH]c(-c3ccccc3)c2C1=O | + | -1.3
COc1ccccc1NS(=O)(=O)c1cccc(NS(=O)(=O)c2cc(C(=O)O)ccc2Cl)c1 | i | 0.1
C=CCN(Cc1ccc(Br)s1)C(=O)c1ccc(OCc2c(C)noc2C)cc1 | i | 1.0
O=C(NCc1ccccc1)C(c1ccccc1)n1c(-c2ccccn2)nc2ccccc21 (stereo unspecified) | i | 6.8

More entries follow:
SMILES | FGF22 binding | HNF4A DNA FP
O=C(c1ccco1)N1N=C(c2ccccc2O)CC1c1cccs1 (stereo unspecified) | i | 0.8
O=C(CS(=O)(=O)c1ccc(Cl)cc1)Nc1nccs1 | i | -0.1
COc1ccc(-c2ccc3c(c2)S(=O)(=O)c2cccc(C(=O)N4CCN(c5ccccn5)CC4)c2C3=O)cc1OC | i | -3.6
Cc1ccc(C(=O)Nc2ccc3nc(C)sc3c2)o1 | i | -5.5
Cc1ccc([C@H]2N[C@]3(CCCN(Cc4cccn4C)C3=O)[C@H]3C(=O)N(C)C(=O)[C@@H]23)cc1 | i | -2.8
CN1OC[C@@H]2CN(C(=O)c3cccnc3)[C@H](c3ccc(N4CCCCC4)cc3)C[C@@H]21 | i | 10.4
O=c1[nH][nH]c2c1[C@@H](c1ccc(F)cc1)O[C@H](C1CCCCC1)C2 | i | 0.9
O=C(NCc1ccccc1Cl)c1ccc2sc([C@H]3C[C@H](O)[C@@H](CO)O3)nc2c1 | i | 3.5
CC(C)(C)c1ccc(CC(=O)N2CCC2(C)C(=O)Nc2cccc3ccccc23)cc1 (stereo unspecified) | i | 4.2
CCCCCCn1cc(CN2CC(N3CCN(CCO)CC3)CS2(=O)=O)nn1 (stereo unspecified) | i | 3.9
CC(=O)Cn1cnc2c(cnn2-c2ccc(F)cc2)c1=O | i | -0.5
COc1ccc(OCCN2CCC(C(=O)NC(c3ccsc3)c3ccccc3C)CC2)cc1 (stereo unspecified) | i | -0.2
Cn1ccc2c(-c3ccc(C(C)(C)C)cc3)cc3c(c21)C1CCC3C1 (stereo unspecified) | i | -1.9
COc1cccc(COC(=O)C2CC(=O)N(Cc3ccccc3)C2)c1OC (stereo unspecified) | i | -6.2
O=S(=O)(CCN1CCN(c2ccccc2O)CC1)c1ccc(Cl)cc1 | i | -6.0
CCCCNC(=O)C1C(c2ccc(C(F)(F)F)cc2)=Nc2ccccc2N1C(=O)c1cccc(C(F)(F)F)c1 (stereo unspecified) | i | 3.0
Cc1nnc(N2C(=O)C(=O)/C(=C(/O)c3ccc4c(c3)OCCO4)C2c2cccc([N+](=O)[O-])c2)s1 (stereo unspecified) | i | 2.1
CCCNC(=O)c1cc2c(c(-c3cccc(-c4cc5ccccc5o4)c3)n1)[C@@H](CCO)N(C(=O)NC(C)C)C2 | i | 0.8
C=Cn1cc(CNC[C@H]2O[C@@H](n3ccc(N)nc3=O)[C@H](O)[C@@H]2O)c(C)n1 | i | -4.9
CS(=O)CC(O)(c1ccc(F)cc1)C1CC1 (stereo unspecified) | i | 4.1
Cc1cc2nc(-c3ccco3)c(Cc3cccc(F)c3)n2c(C)c1Br | i | 2.4
CC(=O)Nc1cccc(-c2cc(NC(C)=O)c3ncc(-c4ccc(F)cc4)n3c2)c1 | i | 2.1
O=C(NCC(=O)N1CCN(Cc2ccccc2)CC1)c1ccccc1Cl | i | 3.9
COc1cccc(CNC(=O)[C@@H]2CCCN2C(=O)[C@H]2CCCCN2C(=O)c2ccccc2C)c1 | i | 0.2
O=C1COc2ccccc2C(c2nc3ccccc3[nH]2)N1Cc1ccccc1 (stereo unspecified) | i | -2.1
O=C(Nc1ccc2c(c1)OCO2)c1cc(C2CCCCN2S(=O)(=O)Cc2ccccc2)on1 (stereo unspecified) | i | 1.4
C[C@@H]1CN([C@@H](C)CO)C(=O)c2cc(Br)cnc2O[C@H]1CN(C)Cc1ccc(-c2ccccc2)cc1 | i | -6.1
C=CCNc1nc(Nc2ccc(OC)c(OC)c2)c2sc(-c3ccccc3)cc2n1 | i | 1.2
CC(C)NC(=O)C1(C)CN(S(C)(=O)=O)CC(=O)N1Cc1ccc2c(c1)OCO2 (stereo unspecified) | i | 4.0
COc1ccc(C(N)c2csc(NC(=O)Nc3cccc(C(F)(F)F)c3)n2)cc1 (stereo unspecified) | i | 2.4

The closing 3 entries of the part above are carried over, then new ones follow:
SMILES | FGF22 binding | HNF4A DNA FP
C=CCNc1nc(Nc2ccc(OC)c(OC)c2)c2sc(-c3ccccc3)cc2n1 | i | 1.2
CC(C)NC(=O)C1(C)CN(S(C)(=O)=O)CC(=O)N1Cc1ccc2c(c1)OCO2 (stereo unspecified) | i | 4.0
COc1ccc(C(N)c2csc(NC(=O)Nc3cccc(C(F)(F)F)c3)n2)cc1 (stereo unspecified) | i | 2.4
COc1ccc(C)cc1/C=C/C(=O)N1CCN(S(=O)(=O)c2cccs2)CC1 | i | -0.8
O=C(C(=O)N1CCN(C(=O)OCc2ccccc2)CC1)c1cccnc1 | i | -2.5
CC(C)c1cc(Cn2c3ccccc3c(=O)n2C(C)Cn2cc(C3CC3)nn2)on1 (stereo unspecified) | i | 3.6
CCOC(=O)[C@]12CCC=C1N(Cc1cccc3ccccc13)C(=O)[C@H](CC(=O)NCc1ccc(C)o1)C2 | i | -2.7
CCN(C)C1CN(Cc2cn(Cc3ccc(C)cc3)nn2)S(=O)(=O)C1 (stereo unspecified) | i | -2.9
C#CCNC(=O)C[C@@H]1C[C@@]2(C(=O)OCC)CCCC=C2N(CCC2=CCCCC2)C1=O | i | 0.7
O=C(Nc1ccccc1Cl)c1cc(S(=O)(=O)N2CCC3(CC2)OCCO3)ccc1F | i | 1.4
c1ccc(N2[C@@H]3c4ccccc4C[C@H]2c2ccccc23)cc1 | i | 0.1
CCOC(=O)c1c(C)cc2c(CO)n[nH]c(=O)c2c1C | i | -0.5
CCOC(=O)C1(C)CCN1C(=O)c1cc(F)ccc1C (stereo unspecified) | i | -2.8
CN1C(=O)[C@H]2[C@@H](c3ccc(C(F)(F)F)cc3)N[C@]3(CCCN(Cc4ccc(Cl)cc4)C3=O)[C@H]2C1=O | i | -0.9
C[C@@H]1CN([C@@H](C)CO)C(=O)CCCn2nncc2CO[C@@H]1CN(C)C(=O)Cc1ccccc1 | i | -2.4
O=C(NCC1CC1)C1Cc2c(-c3ccc(Cl)cc3)ccnc2O1 (stereo unspecified) | i | -4.7
CC1(C)CC(=O)C=C(c2n[nH]nc2C2CCCCC2)C1 | i | -3.3
COc1ccccc1NC(=O)Nc1nnc([C@@H]2C[C@H](O)[C@@H](CO)O2)s1 | i | 1.9
CC(C)[C@H](NC(=O)OC(C)(C)C)c1cc(C(=O)N2CCOCC2)c(N)s1 | i | 3.8
Clc1ccccc1Nc1nc(NCc2cccs2)nc2ccsc12 | i | 0.7
Cc1ccc2ccc(C(Nc3ccccc3)c3ccc(F)cc3)c(O)c2n1 (stereo unspecified) | i | 1.4
COc1ccc([C@H]2C[C@@H](O)[C@H](n3cc(C4CC4)nn3)CN2Cc2cccs2)cc1 | i | -1.6
COCCNC(=S)N(C)[C@H]1C[C@H]2c3cc(-c4ccccc4)ccc3CCN2C(=O)[C@H]1[C@H](C)O | i | -0.8
CN(C)C1CN(Cc2cn(Cc3ccccc3)nn2)S(=O)(=O)C1 (stereo unspecified) | i | 1.4
COP(=O)(OC)OC(C(=O)c1ccccc1)c1ccc(Cl)cc1 (stereo unspecified) | i | 0.8
CSC[C@H]1CN(c2ccccc2)C(=O)[C@@H]1CC(=O)Nc1ccccc1 | i | 5.2
Cc1cn([C@H]2C[C@H](O)[C@@H](CNCc3ccc(N4CCN(C)CC4)cc3F)O2)c(=O)[nH]c1=O | i | -3.1
CCOC(=O)C1CCC(=O)N1Cc1c[nH]c2ccccc12 (stereo unspecified) | i | 0.3
Cc1ccc2nc(-c3ccccc3)c(Cc3ccccc3C(F)(F)F)n2c1 | i | 4.1
COC(=O)c1ccc2nc(-c3ccc(F)cc3)c(Cc3ccccc3)n2c1 | i | -11.2
Cc1ccccc1NS(=O)(=O)c1ccc(C(=O)NCc2ccccc2CN2CCCC2)cc1 | i | 0.2
O=C(Nc1ccccc1Cl)c1cc(C2CCCCN2C(=O)CCc2ccccc2)on1 (stereo unspecified) | i | -2.9
CCCCn1nnnc1C(c1cc2ccccc2o1)N1CCN(CC(=O)N2CCCC2)CC1 (stereo unspecified) | i | 1.8

Whole records as entered above.
Shown for COCCNC(=S)N(C)[C@H]1C[C@H]2c3cc(-c4ccccc4)ccc3CCN2C(=O)[C@H]1[C@H](C)O : FGF22 binding: i; HNF4A DNA FP: -0.8
Shown for CC1(C)CC(=O)C=C(c2n[nH]nc2C2CCCCC2)C1 : FGF22 binding: i; HNF4A DNA FP: -3.3

Carrying on:
SMILES | FGF22 binding | HNF4A DNA FP
Cc1ccc(S(=O)(=O)N2CC3C(=O)C[C@@H](c4ccccc4)N(S(=O)(=O)c4ccc(CCCOCCOCCNC(=O)OC(C)(C)C)cc4)C3CC2c2ccccc2)cc1 (stereo partly specified) | i | -1.2
CN1OC[C@@H]2CN(C(=S)NCCc3ccccc3)[C@H](c3ccc(N4CCCCC4)cc3)C[C@@H]21 | i | 1.3
C[C@@H]1CN([C@@H](C)CO)C(=O)CCCn2nncc2CO[C@H]1CN(C)C(=O)OCc1ccccc1 | i | -2.8
Cc1ccc(S(=O)(=O)N(C)CC(=O)N(C)Cc2cccs2)cc1 | i | 2.4
O=C(NCc1cccs1)C1C(=O)Nc2ccccc2C(=O)N1C1CCCC1 (stereo unspecified) | i | 1.8
COc1cc(F)ccc1-c1csc(C(C)(O)c2ccccc2)n1 (stereo unspecified) | i | 0.5
COc1ccc(C(C)=O)cc1CC1(C)C(=O)Nc2ccc(-c3ccccc3OC)cc21 (stereo unspecified) | i | 0.2
Cc1ccccc1Cn1c(C)c(C(=O)NCc2ccc(Cl)c(Cl)c2)sc1=O | i | -3.1
Nc1nnnn1/N=C/c1ccccc1Cl | i | 0.1
CCOC(=O)C1=CC[C@@H](c2ccccc2)N(S(=O)(=O)c2ccc(C)cc2)[C@H]1/C=C/c1ccccc1 | i | 0.3
